Anaer choline gr: choline-fed anaerobic bacterial growth inhibition. Gram-negative bacterium anaerobic choline minimal medium, absorbance growth; active compounds read low; many inactives read as strong as hits in the columns shown. calls only. 0.2% of 55,000 active. AID 1963822;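 active = growth z-score on choline under -2 at 7 or 20 h with little or no fall on glycerol, limits in tiers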;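 also: stock transfer was 300 nL into about 50 µL; the organism is E. coli; final concentration not given here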
Anaer choline gr early: further read-out of Anaer choline gr, marked with its call; z-score; measured here: choline growth z-score, timepoint 1;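 score of optical density at 7 h as mean of two plates; lower means less growth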
Starred values were filed as active, the others as inactive; & = joins results of further samples.

Screening COc1ccccc1N1CCN(C(=O)CSc2nc3nc[nH]c3c(=O)[nH]2)CC1 returned Anaer choline gr inactive and Anaer choline gr early 0.56.
Screening COC(=O)c1ccc(C(=O)OC)c(NC(=O)c2c(-c3ccccc3)c(-c3ccccc3)n[nH]c2=O)c1 returned Anaer choline gr inactive and Anaer choline gr early 0.05.
O=C(NC1CCCCC1)C1CCCN(S(=O)(=O)c2cc(-c3noc(C4CCC4)n3)cs2)C1 (configuration not stated) was read as Anaer choline gr inactive and Anaer choline gr early -1.1.
CC1CC(C)CN(C(=O)Nc2ccc3c(c2)N(Cc2ccccc2)C(=O)c2ccccc2S3)C1 (configuration not stated) was read as Anaer choline gr inactive and Anaer choline gr early 0.74.
Screening COc1ccc(-c2nn(-c3ccccc3)cc2C2NC(=O)NC(C)=C2C(=O)OC(C)C)cc1 (configuration not stated) returned Anaer choline gr inactive and Anaer choline gr early -0.15.
COc1ccc(CNC(=O)Nc2cn(CC(C)C)c(=O)c3ccccc23)c(OC)c1 was read as Anaer choline gr inactive and Anaer choline gr early -0.81.
For CCCN1C(SCc2ccccc2C)=NS(=O)(=O)c2ccccc21 the results were Anaer choline gr inactive and Anaer choline gr early 0.
`CC(C)NC(=O)C1CCN(c2ccc(Cl)cc2)C1=O` (configuration not stated) gave Anaer choline gr inactive and Anaer choline gr early -0.89.
`Cn1c(-c2nnc(SCC(=O)Nc3ccc4c(c3)OCO4)o2)cc2ccccc21` gave Anaer choline gr inactive and Anaer choline gr early 0.47.
Cc1nn(-c2ccc(F)cc2)c2c1c(=O)c(C(=O)NCc1ccc(F)cc1)cn2C was read as Anaer choline gr inactive and Anaer choline gr early 0.16.
Screening CC1CCN(S(=O)(=O)c2ccc(-c3noc(-c4cnccn4)n3)cc2)CC1 returned Anaer choline gr inactive and Anaer choline gr early -0.04.
Screening CCn1ccc2cc(S(=O)(=O)N3CCCC(C(=O)NCCC4=CCCCC4)C3)ccc21 (configuration not stated) returned Anaer choline gr inactive and Anaer choline gr early 0.53.
Screening CC(C)Cn1cnc2c(N)nc3ccccc3c21 returned Anaer choline gr inactive and Anaer choline gr early 0.55&0.32.
For O=C(Nc1ccc(F)cc1)c1nnc(C2CCCN(C(=O)c3ccc(Cl)cc3)C2)s1 (configuration not stated) the results were Anaer choline gr inactive and Anaer choline gr early 0.
`CC(C)CCSc1nc2c(cnn2CCO)c(=O)[nH]1` gave Anaer choline gr inactive and Anaer choline gr early -0.27.
`Cc1cccc(NC(=O)N2CCN(c3cc(=O)n4nc(-c5cccc(C)c5)sc4n3)CC2)c1` gave Anaer choline gr inactive and Anaer choline gr early -0.96.
For COc1cc2c(=O)n(Cc3ccc(C(=O)NCc4ccccc4)cc3)c(=O)n(CC(N)=O)c2cc1OC the results were Anaer choline gr inactive and Anaer choline gr early -0.3.
For Cc1ccc2c(c1)N(C(=O)CCC(=O)N1CCC(C)CC1)CC(C)O2 (configuration not stated) the results were Anaer choline gr inactive and Anaer choline gr early 0.81.
Screening COC(=O)c1c(-c2ccc(F)cc2)noc1NCc1cc(Br)ccc1OC returned Anaer choline gr inactive and Anaer choline gr early 0.74.
For COc1ccc(-c2cc(C(=O)Nc3cc(C)cc(C)c3)nn2C2CCS(=O)(=O)C2)cc1 (configuration not stated) the results were Anaer choline gr inactive and Anaer choline gr early 0.32.
For COc1ccc(CNC(=O)c2cc(C)nc3c2c(C)nn3-c2ccccc2)cc1 the results were Anaer choline gr inactive and Anaer choline gr early -0.46.
`CCCS(=O)(=O)NC1CCN(C2=NS(=O)(=O)C(c3ccc(C)c(C)c3)=C2C)CC1` gave Anaer choline gr inactive and Anaer choline gr early -0.98.
For Cc1ccc(C2=NS(=O)(=O)N(C)C(C(=O)Nc3cccc(O)c3)=C2)cc1 the results were Anaer choline gr inactive and Anaer choline gr early 0.17.
Cc1nc(-c2csc(S(=O)(=O)N(C)Cc3ccccc3)c2)no1 was read as Anaer choline gr inactive and Anaer choline gr early 1.1.
Screening Cc1ccc(-c2nc(CSCC(=O)NCC(C)C)no2)cc1 returned Anaer choline gr inactive and Anaer choline gr early -1.2.
Cc1cc(C)n(-c2nnc3n2N=C(c2ccccc2O)CS3)n1 was read as Anaer choline gr inactive and Anaer choline gr early 0.14.
For Cc1cc(Sc2ccccc2NC(=O)Nc2ccccc2Br)n2ncnc2n1 the results were Anaer choline gr inactive and Anaer choline gr early 0.42.
O=C(c1csc(S(=O)(=O)N2CCOCC2)c1)N1CCCC1 was read as Anaer choline gr inactive and Anaer choline gr early -1.2.
Cc1cccn2c(=O)cc(COc3ccccc3NC(=O)Nc3cccc(Cl)c3)nc12 was read as Anaer choline gr inactive and Anaer choline gr early 0.03.
`Cc1ccc(-c2nc(CSCC(N)=O)no2)cc1` gave Anaer choline gr inactive and Anaer choline gr early -0.66.
c1ccc(C(c2ccccc2)N2CCN(c3nn4cnnc4c4ccccc34)CC2)cc1 was read as Anaer choline gr inactive and Anaer choline gr early -1.3.
Cc1cc(C)c(S(=O)(=O)Cc2nc(-c3ccccc3)no2)cc1C was read as Anaer choline gr inactive and Anaer choline gr early 1.1.
CCC1Cn2c(C(=O)NCCCN3CCCC3)cc3cccc(c32)O1 (configuration not stated) was read as Anaer choline gr inactive and Anaer choline gr early 0.5.
Cn1c(C(=O)NC2CCCC2)cc2c(=O)oc3ccccc3c21 was read as Anaer choline gr inactive and Anaer choline gr early -1.2.
c1cc(N2CCSCC2)ncc1-c1noc(CN2CCCC2)n1 was read as Anaer choline gr inactive and Anaer choline gr early -1.8.
Screening CC(C)(C)C(=O)N1CCCC(C(=O)Nc2sc3c(c2C(N)=O)CCCC3)C1 (configuration not stated) returned Anaer choline gr inactive and Anaer choline gr early 0.22.
Screening COc1ccc(Cn2ccc3nc(C)c(C(=O)Nc4ccc(OC)cc4)cc3c2=O)cc1 returned Anaer choline gr inactive and Anaer choline gr early 0.31.
For Cc1ccc(-c2nc(CCN(C)S(=O)(=O)c3c(C)noc3C)no2)cc1 the results were Anaer choline gr inactive and Anaer choline gr early -1.6.
`COc1ccc(C2=Nc3ccccc3N(Cc3ccc(C)cc3C)C(=O)C2)cc1` gave Anaer choline gr inactive and Anaer choline gr early 1.5.
`CCN(CC)CCn1c(NCc2ccccc2Cl)nc2ccccc21` gave Anaer choline gr inactive and Anaer choline gr early -0.07.
CCN(CC)CCCNC(=O)CCC(=O)N1Cc2ccccc2Oc2ncccc21 was read as Anaer choline gr inactive and Anaer choline gr early -0.2.
Screening O=C(Nc1noc2ccccc12)c1c(F)cccc1F returned Anaer choline gr inactive and Anaer choline gr early -0.39.
`CCn1c(=O)[nH]c2cc(-c3noc(-c4cnccn4)n3)ccc21` gave Anaer choline gr inactive and Anaer choline gr early 0.84.
Screening CC1CCCCN1CCCNC(=O)C1CCN(c2ncc(-c3ccc(F)cc3)cn2)CC1 (configuration not stated) returned Anaer choline gr inactive and Anaer choline gr early -2.5.
For Cc1nnc(-c2ccc(S(=O)(=O)NC3CCCC3)s2)o1 the results were Anaer choline gr inactive and Anaer choline gr early -0.53.
Screening CC(NC(=O)c1nnc(-c2ccc(S(=O)(=O)N(C)C)cc2)o1)c1ccccn1 (configuration not stated) returned Anaer choline gr inactive and Anaer choline gr early -0.64.
Screening CC(C(=O)NCCCN1CCOCC1)N1C(=O)CCCc2ccccc21 (configuration not stated) returned Anaer choline gr inactive and Anaer choline gr early 0.74.
`CCCn1nccc1-c1csc(S(=O)(=O)N2CCC3(CC2)OCCO3)c1` gave Anaer choline gr inactive and Anaer choline gr early -0.51.

11 entries out of the list, ordered by molecular weight, low to high:
`Cc1ccc(-c2nc(CSCC(N)=O)no2)cc1` gave Anaer choline gr inactive and Anaer choline gr early -0.66.
`CC(C)CCSc1nc2c(cnn2CCO)c(=O)[nH]1` gave Anaer choline gr inactive and Anaer choline gr early -0.27.
`CCn1c(=O)[nH]c2cc(-c3noc(-c4cnccn4)n3)ccc21` gave Anaer choline gr inactive and Anaer choline gr early 0.84.
c1cc(N2CCSCC2)ncc1-c1noc(CN2CCCC2)n1 was read as Anaer choline gr inactive and Anaer choline gr early -1.8.
`CCN(CC)CCn1c(NCc2ccccc2Cl)nc2ccccc21` gave Anaer choline gr inactive and Anaer choline gr early -0.07.
Screening CC1CCN(S(=O)(=O)c2ccc(-c3noc(-c4cnccn4)n3)cc2)CC1 returned Anaer choline gr inactive and Anaer choline gr early -0.04.
Screening CC(C)(C)C(=O)N1CCCC(C(=O)Nc2sc3c(c2C(N)=O)CCCC3)C1 (configuration not stated) returned Anaer choline gr inactive and Anaer choline gr early 0.22.
COc1ccc(CNC(=O)Nc2cn(CC(C)C)c(=O)c3ccccc23)c(OC)c1 was read as Anaer choline gr inactive and Anaer choline gr early -0.81.
For O=C(Nc1ccc(F)cc1)c1nnc(C2CCCN(C(=O)c3ccc(Cl)cc3)C2)s1 (configuration not stated) the results were Anaer choline gr inactive and Anaer choline gr early 0.
For Cc1cc(Sc2ccccc2NC(=O)Nc2ccccc2Br)n2ncnc2n1 the results were Anaer choline gr inactive and Anaer choline gr early 0.42.
Screening COC(=O)c1ccc(C(=O)OC)c(NC(=O)c2c(-c3ccccc3)c(-c3ccccc3)n[nH]c2=O)c1 returned Anaer choline gr inactive and Anaer choline gr early 0.05.

Going on with the list.
Screening CC(=O)O[C@H]1C(=O)[C@@]2(C)C([C@H](OC(=O)c3ccccc3)[C@]3(O)C[C@H](OC(=O)[C@H](O)[C@@H](NC(=O)c4ccccc4)c4ccccc4)C(C)=C1C3(C)C)[C@]1(OC(C)=O)CO[C@@H]1C[C@@H]2O (some centres not stated) returned Anaer choline gr inactive and Anaer choline gr early 1.5.
For CC1(C)CC(=O)C2=C(C1)N(CC1CCCO1)C(=O)C2(NC(=O)CCc1ccccc1)C(F)(F)F (configuration not stated) the results were Anaer choline gr inactive and Anaer choline gr early 0.63.
Screening COc1ccc(Cl)cc1NC(=O)C1CCN(S(=O)(=O)c2cc(-c3noc(C)n3)ccc2C)CC1 returned Anaer choline gr inactive and Anaer choline gr early 1.3.
Cc1ccccc1-c1cc2n(C)c(C)c(CCC(=O)NCc3ccc(Br)cc3)c(=O)n2n1 was read as Anaer choline gr inactive and Anaer choline gr early -1.3.
`CCCCOc1ccc(-c2cc3c(N4CCN(CC)CC4)nccn3n2)cc1` gave Anaer choline gr inactive and Anaer choline gr early -2.
For CCc1ccc(N2CCC(C(=O)NC3CCCC3)C2=O)cc1 (configuration not stated) the results were Anaer choline gr inactive and Anaer choline gr early -0.38.
For Cc1nn(-c2ccc3nnc(C)n3n2)c(C)c1CCC(=O)NCCC(C)C the results were Anaer choline gr inactive and Anaer choline gr early -1.2.
Screening Cc1ccc(S(=O)(=O)N2CCCC(c3nnc(C(=O)Nc4ccc(F)cc4)s3)C2)c(C)c1 (configuration not stated) returned Anaer choline gr inactive and Anaer choline gr early -0.28.
`O=S(=O)(c1ccccc1)c1cnc2c(N3CCNCC3)cccc2c1` gave Anaer choline gr inactive and Anaer choline gr early 0.05.
Screening CCN(CC)CCNc1cc(C)nc2c(C)c(-c3ccc(OC)c(OC)c3)nn12 returned Anaer choline gr inactive and Anaer choline gr early -0.24.
Screening O=S(=O)(Cc1ccccc1)NCc1cccn1Cc1ccccc1 returned Anaer choline gr inactive and Anaer choline gr early -1.
Screening Cc1nn(-c2nc3ccccc3s2)c2c1C(c1ccc3c(c1)OCO3)CC(=O)N2 (configuration not stated) returned Anaer choline gr inactive and Anaer choline gr early 0.09.
For Cc1nnc(-c2ccc(S(=O)(=O)N3CCOCC3)o2)o1 the results were Anaer choline gr inactive and Anaer choline gr early 0.92.
COc1cccc(CNC(=O)C2CCCN2S(=O)(=O)c2cc3c(cc2C)NC(=O)CO3)c1 (configuration not stated) was read as Anaer choline gr inactive and Anaer choline gr early 0.18.
`O=C1CC(c2ccc(Br)cc2)c2cnn(-c3nc4ccccc4s3)c2N1` (configuration not stated) gave Anaer choline gr inactive and Anaer choline gr early 2.9.
For COc1ccc(NC(=O)Nc2nnc(COc3ccccc3F)s2)cc1 the results were Anaer choline gr inactive and Anaer choline gr early -2.1.
CCOC(=O)c1cc2n(n1)CC(C)(C(=O)NC1CCC(C)CC1)N(c1ccc3c(c1)OCO3)C2=O (configuration not stated) was read as Anaer choline gr inactive and Anaer choline gr early -0.05.
For CCN(CC)C(=O)c1ccc(-c2nc3cc(NS(=O)(=O)c4ccccc4F)ccc3n2C)cc1 the results were Anaer choline gr inactive and Anaer choline gr early 0.16.
Screening Cc1cccn2c(=O)cc(CSc3nnc(NC(=O)C(C)C)s3)nc12 returned Anaer choline gr inactive and Anaer choline gr early -0.23.
For O=C(CSc1nc(N2CCc3ccccc3C2)nc2ccccc12)Nc1ccc2c(c1)OCCO2 the results were Anaer choline gr inactive and Anaer choline gr early 0.22.
Screening CCOCCCNC(=O)CNC(=O)N1CCSc2nc(C)cc(C)c21 returned Anaer choline gr inactive and Anaer choline gr early 0.16.
For COCCOC(=O)C1=C(C)NC(C)=C(C(=O)OC/C=C/c2ccccc2)C1c1cccc([N+](=O)[O-])c1 (configuration not stated) the results were Anaer choline gr inactive and Anaer choline gr early 1.2&1.5&1.4&0.79.
For O=C(CCCc1ccc(-c2ccccc2F)cc1)Nc1ccc(O)cc1 the results were Anaer choline gr inactive and Anaer choline gr early 0.47.
CCN(CC)CCNS(=O)(=O)c1cc(-c2cc(C)[nH]n2)sc1C was read as Anaer choline gr inactive and Anaer choline gr early -1.3.
Screening Cc1ccc(N(Cc2nc3nc(C)cc(=O)n3[nH]2)C(=O)CCc2ccccc2)cc1 returned Anaer choline gr inactive and Anaer choline gr early 0.37.
For O=C(NCC(c1cccnc1)c1c[nH]c2ccccc12)Nc1ccc(Br)cc1 (configuration not stated) the results were Anaer choline gr inactive and Anaer choline gr early -0.26.
COc1ccc(NCc2cccn2-c2nnc(N3CCN(c4ccccc4)CC3)s2)cc1OC was read as Anaer choline gr inactive and Anaer choline gr early -0.65.
Screening O=S(=O)(c1ccccc1)c1ccc(NC2CCCCCC2)nn1 returned Anaer choline gr inactive and Anaer choline gr early 0.19.
Screening Cc1ccccc1-n1c(-c2ccccc2)nc2c(cnn2-c2ccccc2)c1=O returned Anaer choline gr inactive and Anaer choline gr early -1.3.

Some of the compounds tested; the hit share may differ from the screen's.
